Assay outcomes (PubChem)
gsp agonist – gsp mutant agonism | gsp mutant cells, cAMP HTRF, 30 min; control for the full effect not named in the record | Potency, µM (doses to about 76.9 µM), inactives show top-dose activation (cAMP increase), actives largely listed as activators | hit rate 0.13% among 340,000; active = well fitted activation curve with a large enough effect; inconclusive = small, poorly fitted or top-dose-only effect, or another doubt; inactive = no such curve, though single readings can be large or run the other way; cell line not stated here;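 further: phosphodiesterase inhibitor Ro 20-1724 added with compounds to block cAMP breakdown; potency means the concentration at half of the fitted maximal effect; nearly all actives have a fitted effect of over 60% in size; about a fifth of the inactives were tested at one dose only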
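Cells in DMEM/10% FBS with G418 were pretreated with compounds in DMSO plus […] (300 uM stock) for 30 min at 37C. cAMP was measured by HTRF (cAMP-d2 plus anti-cAMP antibody-K) after 30 min at room temperature.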
CtBP-E1A inh – CtBP/E1A binding inhibition; hit rate 0.49% among 340,000; activity change, % (no concentration beside the values); AlphaScreen GST-E1A/His-CtBP binding, 1536-well; hits give low values; control for the full effect not named in the record; in the data active means activity change below about -65%; inconclusive means about -30% to -65%; inactive means above about -30%; further: on the % scale 0 is the no-effect control and ±100 the full control effect; compound concentration not given in the record
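Steps: dispense buffer (Tris pH 8.0, NaCl 300 mM, TCEP 1 mM, BSA, Tween 20); add 5X protein mix (GST-E1A, His-CtBP, 125 nM each); pin 23 nL compound; 2 h at 37 °C, dark; add 5X beads (50 ug/mL); 1 h; read.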
D2 PAM – human D2 receptor positive allosteric modulation | P14416 | hit rate 0.23% among 360,000 | potentiation, % (concentration not given with the values) | DiscoveRx D2 beta-arrestin cells, luminescence, 90 min; 100% = 57 uM dopamine signal; active = potentiation of 50% or more; inconclusive = 30% to 50%; inactive = 30% or less;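 further: compound concentration not given in the record; tested on top of an EC20 dose of dopamine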
Target sequence (P14416 whole entry, looked up): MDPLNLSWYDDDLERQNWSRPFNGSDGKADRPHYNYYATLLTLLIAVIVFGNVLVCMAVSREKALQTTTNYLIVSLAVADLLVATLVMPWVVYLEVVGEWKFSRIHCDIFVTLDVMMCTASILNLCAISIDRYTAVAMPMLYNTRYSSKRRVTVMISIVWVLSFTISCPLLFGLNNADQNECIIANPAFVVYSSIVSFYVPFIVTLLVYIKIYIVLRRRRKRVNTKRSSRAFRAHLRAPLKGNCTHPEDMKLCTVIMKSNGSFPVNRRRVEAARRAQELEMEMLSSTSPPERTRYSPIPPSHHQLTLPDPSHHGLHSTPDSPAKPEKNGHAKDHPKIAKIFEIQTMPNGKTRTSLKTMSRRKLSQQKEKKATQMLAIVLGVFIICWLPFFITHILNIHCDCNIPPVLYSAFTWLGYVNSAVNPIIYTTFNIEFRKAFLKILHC
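PathHunter D2 cells, attached overnight at 37 deg C, received compound in DMSO plus dopamine at EC20 (50 nM final) for 90 min at 37 deg C. Beta-arrestin recruitment was read as luminescence after 1 h with detection reagent at ambient temperature.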
gsp antagonist – antagonists of gsp mutant (McCune-Albright syndrome) | hit rate 0.4% among 340,000 | Potency, µM (series often up to 76.9 µM), without a hit: at the highest dose activity change, negative = inhibition, usual class: inhibitors | gsp-mutant cells, cAMP HTRF, 30 min; control for the full effect not named in the record; active = falling curve of any shape with a large fitted effect; inconclusive = falling curve, mostly with a smaller effect; inactive = flat or rising curve; cell line not stated here;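 further: intracellular cAMP measured with PDE inhibitor Ro 20-1724 present during compound exposure; potency means the concentration at half of the fitted maximal effect; on the % scale 0 is the no-effect control and ±100 the full control effect; nearly all actives have a fitted effect of over 65% in size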
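Measurement of cellular cAMP by homogeneous time-resolved fluorescence following a 30 min compound exposure at 37C. The PDE inhibitor […] was present throughout; the assay buffer was DPBS with 0.05% BSA and 0.005% Tween 20.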
D2 agonist – agonists of human D2 dopamine receptor (beta-arrestin). hit rate 0.084% among 360,000. P14416. AID 624465. DiscoveRx PathHunter D2 beta-arrestin, luminescence, 90 min; 100% = 57 uM dopamine signal. activation, % (no concentration beside the values); in the data active = activation above about 40%; inconclusive = about 15% to 40%; inactive = below about 15%; further: compound concentration not given in the record; the text of the record calls up to 30% inactive
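Agonist mode: compounds alone added to overnight-plated D2 PathHunter cells for 90 min at 37 C, with 57 uM final dopamine (EC100) defining full response. Beta-arrestin recruitment detected by chemiluminescent reagent, read after 1 h at ambient temperature.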
Six1-Eya2 blk – inhibitors of human Six1/Eya2 interaction | AlphaScreen GST-Six1/His-Eya2 binding, biochemical; hits give low values; control for the full effect not named in the record | Q15475+O00167 | activity change, % (concentration not given with the values) | hit rate 0.56% among 360,000; in the data active = activity change below about -65%; inconclusive = about -30% to -65%; inactive = above about -30%; further: on the % scale 0 is the no-effect control and ±100 the full control effect
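AlphaScreen luminescence read after one hour at 37 °C in darkness. Pin-transferred compounds met GST-Six1 and His-Eya2 protein (5X stock 250 nM/500 nM) plus glutathione donor and Ni-chelate acceptor beads (5X, 50 ug/mL).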
Numbers without * were called inactive; ? = inconclusive; / = no result given; [ ] = dose if it differs, or a comment.

1: O=C1c2ccccc2/C(=C\C#Cc2ccccn2)N1c1ccccc1
2: CC1CCN(CCCNc2cc(NCCO)c([N+](=O)[O-])c3nonc23)CC1
3: COc1cc(C(=O)N2CCC(NC(=O)C(Cc3ccccc3C)NC(C)=O)CC2)cc(OC)c1OC (configuration not stated)
4: Cc1cc(C)cc(NC(=O)COc2ccc(C(=S)N3CCOCC3)cc2)c1
5: O=c1c2ccccc2c(C=NCc2ccccn2)c(O)n1-c1ccccc1
6: Cc1ccccc1NC(=O)/C=C1\SC(=O)NC1=O
7: CC1=NN(C(N)=S)C(=O)C1N=Nc1cccc(C(=O)O)c1 (configuration not stated)
8: O=C(O)c1ccc(OCC(O)Cn2c3ccccc3c3ccccc32)cc1 (configuration not stated)
entry no. | 1 | 2 | 3 | 4 | 5 | 6 | 7 | 8
gsp agonist | / | ? | -16% | 15%[15.4 µM] | -19% | -9% | -56% | -6%[15.4 µM]
CtBP-E1A inh | -29 | -1 | 7 | 5 | / | -1 | -6 | 0
D2 PAM | -14 | -7 | -9 | -7 | 3 | -9 | -6 | 0
gsp antagonist | ? | 4% | 5% | -13% | -5% | -22% | -9% | -7%
D2 agonist | -1.8 | -5.8 | -1.6 | -1.2 | -2.8 | -1.8 | 3.3 | -0.2
Six1-Eya2 blk | -27 | -3 | 6 | 6 | -9 | 2 | 3 | -3

9: CCOC(=O)[C@@H]1C(c2c(OC)cc(OC)cc2OC)=NO[C@@H]1C(=O)OCC
10: COc1cccc(CNS(=O)(=O)/C=C/c2ccc3c(c2)OCO3)c1
11: N#CC(C(=O)NC1CCCCC1)=C1CCCCC1
12: Cc1ccc(NC(=O)CCNS(=O)(=O)c2cccc3nsnc23)cc1F
13: COc1cc(/C=C2\C(=O)N(CCC#N)N=C2C)c(Br)cc1OC(C)C
14: CCOC(=O)c1sc2nc(N3CCOCC3)c3c(c2c1N)CC(C)(C)N(C)C3
15: CC(Oc1ccc([N+](=O)[O-])cc1Cl)C(=O)Nc1ccc(C(N)=O)cc1 (configuration not stated)
16: O=C(CSc1ccc(Br)cc1)N1CCOCC1
entry no. | 9 | 10 | 11 | 12 | 13 | 14 | 15 | 16
gsp agonist | 8%[15.4 µM] | -19% | 28%[15.4 µM] | -44%[inhibitor] | -14% | 15% | 11%[15.4 µM] | ?
CtBP-E1A inh | 4 | 0 | 4 | 5 | 5 | 3 | / | 0
D2 PAM | -6 | 6 | 1 | 0 | -1 | -2 | 0 | -3
gsp antagonist | -12% | 2% | -6% | -23% | -5% | 10% | -9% | 6%
D2 agonist | -2.0 | -3.1 | -7.9 | 2.9 | -2.5 | 2.5 | -1.7 | -0.6
Six1-Eya2 blk | 2 | 5 | 5 | 3 | 2 | 1 | -3 | 17

17: Cc1ccc(C)c(OCCSc2nnc(C)c(=O)[nH]2)c1
18: Cc1ccc(C)c(Nc2cc(C)nc(-c3ccccc3O)n2)c1
19: CN(C)/C(=N\O)c1c(Cl)cccc1Cl
20: CCOC(=O)c1ccc[n+](CC(=O)Nc2ccccc2OC(F)F)c1
21: O=C(O)CCNC(=O)CCCn1nnc2ccccc2c1=O
22: CN(C)C(=O)C1C2NC(=S)N(c3ccc(Cl)cc3)C1(C)Oc1ccc(Cl)cc12 (configuration not stated)
23: CC12/C(=N/O)C3C4CC5C3/C(=N/O)C1C5C42 (configuration not stated)
24: CCN(c1ccccc1)S(=O)(=O)c1cccc(C(=O)NCCOc2ccccc2OC)c1
entry no. | 17 | 18 | 19 | 20 | 21 | 22 | 23 | 24
gsp agonist | -7%[15.4 µM] | ? | ? | 17% | ? | -8%[15.4 µM] | 9% | ?
CtBP-E1A inh | -14 | 14 | 3 | 16 | 6 | -10 | 3 | -2
D2 PAM | 7 | -5 | -1 | -4 | -6 | -7 | -14 | -23
gsp antagonist | -1% | -13% | 11% | 9% | 24% | -13% | -1% | -32%
D2 agonist | -0.2 | 4.2 | 5.9 | -0.1 | -4.8 | -6.0 | 1.0 | -0.6
Six1-Eya2 blk | 3 | 6 | 3 | -9 | 1 | -15 | 4 | -2

25: Cc1cc(=O)oc2cc(NC(=O)CC3(CC(=O)O)CCCC3)ccc12
26: COc1ccc(CCN2CC(C(=O)Nc3nnc(Cc4ccccc4)s3)CC2=O)cc1OC (configuration not stated)
27: CC(=O)N(C)Cc1ccc(C(=O)CSc2nnc(C3CC3)n2C2CC2)cc1
28: CCc1nnc(NC(=O)CSc2nnc(-c3ccc(O)cc3)n2C)s1
29: O=C1/C(=C\c2cccc([N+](=O)[O-])c2O)SC(=S)N1Cc1ccccc1
30: CCOC(=O)N1CCN(C(=O)CCCN2C(=O)CSc3nc(C)cc(C)c32)CC1
31: Cc1nn(-c2ccccc2)c(C)c1/C=N/NC(=O)c1cc(C(C)(C)C)[nH]n1
32: COc1cc(CN2CCNC(=O)C2CC(=O)NCCC2=CCCCC2)cc(OC)c1 (configuration not stated)
entry no. | 25 | 26 | 27 | 28 | 29 | 30 | 31 | 32
gsp agonist | -1%[15.4 µM] | -10% | 4% | 0%[15.4 µM] | ? | 18% | 5% | 47%
CtBP-E1A inh | -6 | / | -14 | -1 | -30 | -2 | -2 | -9
D2 PAM | -1 | -9 | -1 | 9 | -9 | 1 | -37 | 1
gsp antagonist | 5% | -10% | 7% | 5% | ? | 50µM* | -13% | -2%
D2 agonist | -1.8 | 4.1 | -1.9 | 9.4 | -11 | -5.3 | -1.1 | -1.0
Six1-Eya2 blk | -5 | -2 | 8 | -2 | ? | 8 | 1 | 2

33: COc1cc2c(cc1OC)C(C(=O)Nc1ccc3c(c1)OCCO3)C1c3ccccc3CCN1C2=O (configuration not stated)
34: CC(=O)Nc1ccc(Nc2nnc(-c3ccc(C)c(S(=O)(=O)NCC4CCCO4)c3)c3ccccc23)cc1 (configuration not stated)
35: Cc1nc(N2CCN(c3ccccc3)CC2)[nH]c(=O)c1CCC(C)C
36: CCN(CC)c1ccc(-c2sc(Nc3ccccc3)n[n+]2-c2ccc(F)cc2)cc1
37: CC(=O)Nc1cccc(-c2ccnc3c2CC(C(=O)Nc2cccc(OC(F)(F)F)c2)O3)c1 (configuration not stated)
38: O=C(CCN1C(=O)c2cccc([N+](=O)[O-])c2C1=O)Nc1nccs1
39: COc1ccccc1-c1cc2nc(C)c(CCC(=O)NC(C)CCc3ccco3)c(C)n2n1 (configuration not stated)
40: CCOc1ccc(NC(=O)COC(=O)C2(C)CC2(Cl)Cl)c([N+](=O)[O-])c1 (configuration not stated)
entry no. | 33 | 34 | 35 | 36 | 37 | 38 | 39 | 40
gsp agonist | -12%[15.4 µM] | 1% | 25% | ? | / | 8%[15.4 µM] | 0% | -1%[15.4 µM]
CtBP-E1A inh | 9 | 4 | -9 | -2 | -6 | 2 | -5 | 6
D2 PAM | 0 | -5 | 4 | -9 | -12 | 3 | -4 | 6
gsp antagonist | -9% | 11% | 5% | -14% | / | -8% | -25% | -22%
D2 agonist | -2.9 | -2.4 | 2.7 | -9.8 | 2.3 | 3.2 | -3.7 | 7.6
Six1-Eya2 blk | 6 | 4 | -2 | 2 | -7 | 7 | -14 | ?

41: NC(=O)c1ccccc1NC(=O)c1ccccc1S(=O)(=O)c1ccccc1[N+](=O)[O-]
42: Cc1cc(Br)ccc1NC(=O)CN(C)C(=O)c1ccccc1OCc1c(C)noc1C
43: CCOC(=O)C1(CCOc2ccccc2)CCN(Cc2cccc(OC)c2OC)CC1
44: COc1ccccc1N1CCN(C(=O)c2ccc(Cl)c(S(=O)(=O)N3CCOCC3)c2)CC1
45: O=C(N/N=C/c1ccsc1)c1cc2ccccc2o1
46: Cc1ccc(C)c(NS(=O)(=O)c2cc3c4c(c2)CC(=O)N4CCC3)c1
47: CCCn1nc(C(=O)OCC(=O)Nc2cccc(OC)c2)c2ccccc2c1=O
48: Cc1nnc(NC(=O)CSc2nnc(-c3ccco3)o2)s1
entry no. | 41 | 42 | 43 | 44 | 45 | 46 | 47 | 48
gsp agonist | -2% | ? | -46%[inhibitor] | 7%[15.4 µM] | -12% | 8% | 9%[15.4 µM] | 31%
CtBP-E1A inh | 3 | 1 | -15 | 12 | / | 4 | -4 | -29
D2 PAM | 2 | -6 | -14 | -4 | 1 | -5 | 6 | 18
gsp antagonist | -1% | / | 1% | -6% | 10% | -10% | -22% | -1%
D2 agonist | 4.4 | -0.2 | -1.0 | -2.2 | -2.5 | 0.7 | -2.7 | 2.2
Six1-Eya2 blk | -5 | 1 | -9 | -2 | 1 | -7 | -1 | -26

Reprinted at random: 5 records from the list
41: NC(=O)c1ccccc1NC(=O)c1ccccc1S(=O)(=O)c1ccccc1[N+](=O)[O-]
45: O=C(N/N=C/c1ccsc1)c1cc2ccccc2o1
43: CCOC(=O)C1(CCOc2ccccc2)CCN(Cc2cccc(OC)c2OC)CC1
48: Cc1nnc(NC(=O)CSc2nnc(-c3ccco3)o2)s1
46: Cc1ccc(C)c(NS(=O)(=O)c2cc3c4c(c2)CC(=O)N4CCC3)c1
entry no. | 41 | 45 | 43 | 48 | 46
gsp agonist | -2% | -12% | -46%[inhibitor] | 31% | 8%
CtBP-E1A inh | 3 | / | -15 | -29 | 4
D2 PAM | 2 | 1 | -14 | 18 | -5
gsp antagonist | -1% | 10% | 1% | -1% | -10%
D2 agonist | 4.4 | -2.5 | -1.0 | 2.2 | 0.7
Six1-Eya2 blk | -5 | 1 | -9 | -26 | -7

The results go on:
49: CCOC(=O)COn1c(=O)c(-c2ccc(Br)cc2)[n+]([O-])c2ccccc21
50: Cc1cc(C)n(CCNS(=O)(=O)c2ccccc2)n1
51: CCOc1ccccc1/C=N/Nc1nc2ccccc2o1
52: O=C(Nc1ccc(Br)cc1F)c1ccc2c(c1)OCCO2
53: CCn1cc(C(=O)Nc2ccccc2C(=O)OC)cn1
54: Cc1nn(C)cc1/C=N/NC(=O)c1ccco1
55: O=C(O)C1(c2cccc(Cl)c2)CCC1
56: O=S(=O)(c1ccccc1)N1CC2CC(Br)C(Br)CC21 (configuration not stated)
57: CC(C)[C@H](NC(=O)c1ccc(Cl)cc1)C(=O)Nc1cccc(S(=O)(=O)N2CCOCC2)c1
entry no. | 49 | 50 | 51 | 52 | 53 | 54 | 55 | 56 | 57
gsp agonist | -14%[15.4 µM] | 22% | 0%[15.4 µM] | -1% | -33%[inhibitor] | 6% | 18% | 5% | -137%[inhibitor]
CtBP-E1A inh | -2 | 1 | 8 | 13 | 10 | 1 | 1 | -3 | -1
D2 PAM | 4 | -1 | -24 | -7 | -4 | 0 | -4 | -5 | -22
gsp antagonist | -2% | 9% | -1% | -6% | 0% | 5% | 5% | / | /
D2 agonist | -1.8 | 4.1 | -7.8 | -1.0 | -4.1 | 0.5 | -2.8 | -3.0 | -1.3
Six1-Eya2 blk | 3 | 9 | -2 | 13 | 1 | 6 | 1 | 12 | -5
